# HCMV NEC inh: disrupts HCMV UL50-UL53 complex binding; HTRF UL50-UL53 interaction, normalized percent inhibition; inhibition, % (no concentration beside the values); actives 0.15% (n = 190,000); AID 1918969;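 active means both replicates at 50% or more, plus weaker picks with an unusually low signal ratio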;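 further: stock transfer was 100 nL into about 20 µL; 0% = negative control wells and 100% = wells with untagged competitor protein; inactives centre near -12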
# GIV Gai3 FP: GIV-Galpha-i interaction inhibition; percent of control (FP), % (concentration not given with the values); AID 1224905; Galpha-i3/FITC-GIV peptide fluorescence polarization, 90 min; hits give low values; scaled: aluminum fluoride 0%, vehicle 100%; P08753; actives 0.42% (n = 210,000);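 active means replicate mean at 85% of control or lower, very high polarization wells dropped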;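 further: wells of about 15 µL received 100 nL stock; the first replicate is given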
# Target sequence (P08753 whole entry, looked up): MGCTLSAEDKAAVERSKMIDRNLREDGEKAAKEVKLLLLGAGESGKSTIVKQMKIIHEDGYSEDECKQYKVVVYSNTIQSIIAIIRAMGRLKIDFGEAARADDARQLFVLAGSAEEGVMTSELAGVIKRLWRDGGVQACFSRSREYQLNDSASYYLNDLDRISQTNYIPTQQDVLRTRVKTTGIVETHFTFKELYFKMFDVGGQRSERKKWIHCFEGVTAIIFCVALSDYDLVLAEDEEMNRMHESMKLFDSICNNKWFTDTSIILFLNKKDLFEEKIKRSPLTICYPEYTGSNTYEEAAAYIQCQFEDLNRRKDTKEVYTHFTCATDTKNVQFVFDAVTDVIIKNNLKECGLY
# Sa growth inh: S. aureus growth inhibition; AID 720641; S. aureus RN4220 growth, OD600, 20 h, 42 °C; hits give low values; relative growth, % (concentration not given with the values); actives 0.53% (n = 170,000);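 active means growth at 42 °C up to 50% and 20 or more points under that at 30 °C, or under 10% at both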;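 further: 300 nL library stock went into each well; scaled to the means of positive and negative controls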
# Sa growth inh second temp: further read-out of Sa growth inh, marked with its call; relative growth, %; measured here: growth at 30 °C;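 optical density after 20 h as mean of two plates; 100% = untreated growth and lower means inhibition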
# Starred values were filed as active, the others as inactive; x = not tested or not shown; & = joins results of further samples.
no.	Structure	Sa growth inh second temp	GIV Gai3 FP	HCMV NEC inh	Sa growth inh
1	CC1=C(C(N)=O)C(c2cccc(Br)c2)n2nc(SCc3ccccc3Cl)nc2N1 (configuration not stated)	90	99	x	79
2	O=C(C1CC(O)CN1S(=O)(=O)c1ccc2ccccc2c1)N1CCc2ccccc2C1 (configuration not stated)	93	x	-27	101
3	Cc1ccc2c(c1)c1c(c(=O)n(Cc3ccccc3)c(=O)n1CC(=O)Nc1ccccc1C)n2C	77	114	x	82
4	O=C(OC(C(=O)NCC1CCCO1)c1ccc(F)cc1)c1ccco1 (configuration not stated)	97	106	-1	116
5	O=C(/C=C/c1cccs1)N1CCCCC1c1nc2ccccc2s1 (configuration not stated)	72	x	-15	78
6	COc1cc2c3c(c1OC)-c1cc(OC(C)=O)ccc1CC3N(C(C)=O)CC2 (configuration not stated)	63	99	x	99
7	Cc1ncc(CSc2nc3ccc(C(F)(F)F)cc3[nH]2)c(CO)c1O	72	103	-43	76
8	CC(C)(C)OC(=O)N1CCC(c2c(C(=O)Nc3ccc4c(c3)OCCO4)cnn2-c2ccc(F)cc2)CC1	89	106	x	97
9	CCc1ccc(NC(=O)Cn2c(=O)oc3ccccc32)cc1	73	100	x	89
10	O=C(COC(=O)C1CCCN1C1=NS(=O)(=O)c2ccccc21)Nc1ccc(F)cc1 (configuration not stated)	85	x	1	120
11	COCCNC(=O)c1ccc2c(c1)N(Cc1cc(C)ccc1C)C(=O)c1ccccc1S2(=O)=O	91	106	-26	97
12	COc1ccccc1NC(=O)CC(c1ccccc1)c1ccc(C)cc1O (configuration not stated)	82	104	x	104
13	CC(Oc1ccccc1)C(=O)Nc1cccc(OCc2cc(=O)n3c(ncn3C(C)C)n2)c1 (configuration not stated)	x	100	-17	x
14	COC(=O)Cn1nnnc1-c1ccc(Cl)cc1	66	103	-4	116
15	CC1CCC(C(C)C)C(OC(=O)COC(=O)c2cc(=O)[nH]c(=O)[nH]2)C1 (configuration not stated)	89	x	-27	90
16	CCC(=O)N=c1sc2cc(OC)c(OC)cc2n1CCOC	96	101	-1	100
17	Cc1ccc(CNc2nc(C)nc3c(-c4ccc(C)cc4)noc23)cc1	x	108	-5	x
18	CCc1nn(CC(=O)NCc2cc(Br)ccc2OC)c(=O)c2cc3sc(C)cc3n12	85	102	5	114
19	O=C1CCCN1CCCNC(=S)Nc1ccc(Nc2ccccc2)cc1	98	102	-6	116
20	O=C1CNC(=O)N1Cc1ccc(F)cc1	74	106	6	98
21	CS(=O)(=O)c1ccccc1C(=O)Nc1ccc2sccc2c1	97	104	2	121
22	COc1cc(OC)c(OC)cc1CN1CCc2nc(N3CCN(c4ncccn4)CC3)ncc2C1	78	104	x	80
23	Cc1ccc(NC(=O)C(=O)NCC(c2cccnc2)N2CCN(Cc3ccccc3)CC2)cc1F (configuration not stated)	91	105	-8	104
24	CC1CCN(C(=O)COC(=O)c2ccc(Br)o2)CC1	83	x	-22	135
25	Cc1cc(=O)n2[nH]c(CN(C(=O)C(C)(C)C)c3ccc(F)cc3)nc2n1	x	97	-11	x

# Entries of single compounds as entered above.
# Entry for `O=C1CCCN1CCCNC(=S)Nc1ccc(Nc2ccccc2)cc1` → Sa growth inh second temp = 98; GIV Gai3 FP = 102; HCMV NEC inh = -6; Sa growth inh = 116
# Entry for `CCc1ccc(NC(=O)Cn2c(=O)oc3ccccc32)cc1` → Sa growth inh second temp = 73; GIV Gai3 FP = 100; HCMV NEC inh = x; Sa growth inh = 89
# Entry for `COc1cc2c3c(c1OC)-c1cc(OC(C)=O)ccc1CC3N(C(C)=O)CC2` (configuration not stated) → Sa growth inh second temp = 63; GIV Gai3 FP = 99; HCMV NEC inh = x; Sa growth inh = 99

# New compounds follow:
no.	Structure	Sa growth inh second temp	GIV Gai3 FP	HCMV NEC inh	Sa growth inh
26	CCOC(=O)c1cncc(C#CCOC(=O)c2ccc(Cl)cc2)c1	84	105	-11	93
27	Sc1ccc2ccccc2c1	91	x	-5	82
28	CC12CCC(=O)C=C1CCC1C2[C@@H](O)CC2(C)C1CC[C@]2(O)C(=O)COP(=O)(O)O (some centres not stated)	88	x	-11	87
29	CC(NC(=O)CN1c2ccccc2S(=O)(=O)c2ccccc21)c1ccccc1 (configuration not stated)	x	101	-10	x
30	COc1ccc(N2CCN(C(=O)C3CCN(C(=O)c4cc5sccc5n4C)CC3)CC2)cc1	93	106	-6	104
31	COc1ccc(-c2cccc(NC(=O)C(F)(F)F)c2)nn1	85	108	-25	89
32	O=C(O)c1ccc(CN2CCS(=O)(=O)CC2)cc1	88	96	-10	89
33	CC(CN1CCNCC1)(NS(=O)(=O)c1ccccc1)c1ccccc1 (configuration not stated)	96	x	8	92
34	O=C(NCCN1CCOCC1)N1CCNC1=O	110	103	-6	109
35	COc1ccc(OC)c(S(=O)(=O)N2Cc3ccccc3CC2C(=O)Nc2ccc(C(C)=O)cc2)c1 (configuration not stated)	95	105	-7	116
36	Cc1ccccc1NC(=O)C(C)Sc1nnc(-c2ccccc2C)o1 (configuration not stated)	107	101	-14	109
37	COc1ccc(-c2ccc(SCc3nc(-c4ccc5c(c4)OCO5)no3)nn2)cc1OC	x	104	7	x
38	CN(C)c1nc(OCCOC(=O)Nc2ccccc2)nc(N(C)C)n1	x	101	-16	x
39	O=C(Nc1ccc2c(c1)OCCO2)N1C=CC(C(F)(F)F)=NCC1	98	99	-1	109
40	CCSc1nc(C)nc(N)n1	114	102	-4	124
41	CCOc1ccc(NC(=O)c2sc3nc4c(c(-c5ccccc5)c3c2N)C(=O)CC(C)(C)C4)cc1	89	100	-27	92
42	Cn1c(=O)[nH]c(=O)c2c(C3C(=O)Nc4ccccc43)c(-c3ccccc3)[nH]c21 (configuration not stated)	x	102	-21	x
43	COc1ccc(Oc2nc(C)cc(C)c2C#N)cc1	96	115	-8	102
44	Cc1oc(-c2ccc(Cl)cc2)nc1CS(=O)CC(=O)NCCN1CCCC1 (configuration not stated)	91	105	-11	90
45	CCOc1ccc(C(=O)N2CCc3c(c(C(=O)NCc4ccccc4)nn3C)C2)cc1	x	103	-30	x
46	Cc1nn(CC(=O)N2CCN(c3ccccn3)CC2)c(=O)c2cc3sccc3n12	x	98	-13	x
47	O=C(O)C1CC2C=CCC(C1)C2=O (configuration not stated)	97	x	22	90
48	Cc1scc(CN2CCN(c3ccccc3F)CC2)c1C	109	109	x	109
49	CC(=O)Nc1nc(-c2ccc(S(=O)(=O)Nc3ccc(C)cc3)cc2)cs1	x	103	-26	x
50	COc1ccccc1C1C(C(C)=O)=C(C)N=c2s/c(=C\c3cc(OC)c(OC)c(OC)c3)c(=O)n21 (configuration not stated)	x	101	-24	x

# Going on with the list.
no.	Structure	Sa growth inh second temp	GIV Gai3 FP	HCMV NEC inh	Sa growth inh
51	CCOC(=O)c1cc(=O)c2ccc(OCc3ccccc3)cc2o1	94	99	-33	96
52	O=C(NCc1ccc(Cl)cc1)c1cccc(S(=O)(=O)N2CCCC2)c1	100	x	-9	120
53	C=CCN1C(=O)c2ccc(C(=O)OCC(=O)c3cc(C)n(C)c3C)cc2C1=O	98	x	-48	87
54	CCOc1ccccc1NS(=O)(=O)c1cc(-c2c(C)noc2C)ccc1C	x	96	-1	x
55	c1cc(CNC2CC2)ccn1	86	102	-17	98
56	Cc1ccc(CNC(=O)CSc2c3c(nc4ccc(Cl)cc24)CCCC3)cc1	95	105&102	-31&-19	110
57	Cc1ccc(CNC(=O)CN2N=C(c3ccc(C)cc3)CCC2=O)cc1	84	95	x	95
58	O=C(c1cc(-c2ccccc2O)on1)N1CCCCC1	87	103	-31	102
59	Cc1ccccc1CSCCC(=O)NC1CCCCC1	87	111	x	106
60	CCC1(C)Oc2ccc(NC(=O)c3cc(F)c(F)cc3Cl)cc2O1 (configuration not stated)	97	x	-4	84
61	NS(=O)(=O)c1cc(Cl)c(NC(=O)CSC2CCCC2)c(Cl)c1	87	x	-16	107
62	O=c1[nH]c(C2CCCN(S(=O)(=O)c3cccc(Cl)c3)C2)nc2c1nnn2Cc1ccc(Cl)cc1 (configuration not stated)	81	103	-9	110
63	O=C(OCC(=O)N1CCc2ccccc2C1)c1ccccc1O	87	x	-39	109
64	O=C(Nc1cccc(F)c1)c1oc2ccccc2c1NC(=O)C1CCCC1	100	102	-25	112
65	COc1ccc(C(=O)c2[nH]c(-c3ccc(OC)cc3)cc2-c2ccccc2)cc1	88	x	-2	97
66	NNC(=O)CNC(=O)C12CC3CC(CC(C3)C1)C2	96	x	-32	101
67	O=C(CN1CCN(S(=O)(=O)c2cc(C(F)(F)F)ccc2Cl)CC1)N1CCc2ccccc2C1	87	x	-8	104
68	CCCCNC(=O)c1cccc(Nc2cc(-c3cccc(C)c3)ncn2)c1	x	105	-31	x
69	CCOC(=O)N1CCC(NC(=O)CCS(=O)(=O)c2cc(Br)cc3c2N(C(C)=O)CC3)CC1	94	101	5	105
70	C=CCc1ccccc1COCC(O)CN1CC(C)OC(C)C1 (configuration not stated)	96	x	8	90
71	O=C(COCc1cc(-c2ccco2)on1)NCCN1CCOCC1	85	105	-33	103
72	Cc1nc(C(F)(F)F)ccc1NC(=O)/C=C/C(=O)O	87	103	x	107
73	Cc1ccc(CN(C)CC(=O)Nc2cc(Cl)ccc2C#N)cc1	89	x	-5	88
74	C=CCN(C(=O)c1cccc2c1SCCC2=O)c1ccccc1	83	99	x	92
75	CC(CNC(=O)CCS(=O)(=O)c1cc2c(cc1Cl)NC(=O)CO2)c1ccccc1 (configuration not stated)	95	106	x	100

# Next records follow:
no.	Structure	Sa growth inh second temp	GIV Gai3 FP	HCMV NEC inh	Sa growth inh
76	O=C(Nc1ccc(C(=O)N2CCN(c3ccccc3F)CC2)cc1)c1nsc2ccccc12	89	105	x	105
77	O=C(O)Cc1cc(C(F)(F)F)on1	100	x	24	93
78	COc1ccc(C2CC(=O)N(CC(=O)Nc3ccc4c(c3)OCO4)c3ccccc3S2)cc1OC (configuration not stated)	91	102	x	98
79	Cc1ccc(CNc2ncnc3c2cnn3-c2ccc(C)cc2C)cc1	80	101	x	105
80	Cc1ccc(C)c(N2CCN(c3c4c(nc5nc(C)nn35)CCC4)CC2)c1	x	103	-3	x
81	COc1ccc(Cl)cc1NC(=O)CN(C(=O)c1ccco1)C1CCCCC1	91	102	16	85
82	Cn1ccsc1=NC(=O)c1ccc2c(c1)S(=O)(=O)c1ccccc1C2=O	91	x	-30	67
83	CCOCc1c(C(=O)Nc2cccc(C(=O)NC3CC3)c2)oc2ccccc12	93	x	-6	78
84	O=C1NN=C(c2ccccc2)/C1=C1\OC(c2ccccc2)=CS1	84	106	-24	113
85	O=C(Nc1ccc(F)c(Cl)c1)C1CCCN1S(=O)(=O)c1ccc(F)cc1 (configuration not stated)	95	100	2	109
86	CCOC(=O)Cn1cc(C#N)c2ccccc21	75	101	-12	101
87	CC(O)c1nc2ccc(Cl)cc2[nH]1 (configuration not stated)	90	102	-6	104
88	NC(=O)CN(c1ccc(Cl)cc1Cl)S(=O)(=O)c1ccccc1	95	x	-2	99
89	Cc1noc(C)c1COc1cccc(C(=O)OC(C)C#N)c1 (configuration not stated)	91	x	-26	94
90	O=C(C1CC(=O)N(c2ccc3c(c2)OCCO3)C1)N1CCN(c2ccccc2)CC1 (configuration not stated)	79	x	-26	96
91	Cc1c(Cl)cn2c(=O)cc(CN3CCN(Cc4ccc5c(c4)OCO5)CC3)nc2c1Cl	95	x	-32	98
92	CCCSc1nnc(N)s1	91	101	x	84
93	NNC(=O)c1cc2c(s1)CCCCC2	62	x	-22	93
94	O=C1CCCN2N=C(SCC(=O)NCc3ccccc3)SC2=N1	x	104	-19&-38	x
95	CCOc1ccc(C(=O)Nc2ccccc2CCc2nc3ccccc3n2C)cc1	x	103	-27	x
96	CCOC(=O)c1c(NC(=O)N2CCc3cc(S(=O)(=O)N4CCC(C)CC4)ccc32)sc2c1CCCC2	x	105	-7	x
97	CC(C)NC(=O)CSc1nc2ccccc2s1	97	x	5	103
98	Cc1cc(C)c(OCC(=O)N(Cc2ccc(N(C)C)cc2)CC2CCCO2)c(C)c1 (configuration not stated)	86	102	-34	96
99	O=C(CSc1oc(-c2ccco2)nc1S(=O)(=O)c1ccc(Br)cc1)c1ccccc1	94	104	0	89
100	CC(Sc1nc2c(cc1C#N)CCCCC2)C(=O)O (configuration not stated)	97	102	-5	92

# Rewritten screen by screen: entries from further up.
85	O=C(Nc1ccc(F)c(Cl)c1)C1CCCN1S(=O)(=O)c1ccc(F)cc1 (configuration not stated)
81	COc1ccc(Cl)cc1NC(=O)CN(C(=O)c1ccco1)C1CCCCC1
76	O=C(Nc1ccc(C(=O)N2CCN(c3ccccc3F)CC2)cc1)c1nsc2ccccc12
88	NC(=O)CN(c1ccc(Cl)cc1Cl)S(=O)(=O)c1ccccc1
Screen / compound no. | 85 | 81 | 76 | 88
Sa growth inh second temp | 95 | 91 | 89 | 95
GIV Gai3 FP | 100 | 102 | 105 | x
HCMV NEC inh | 2 | 16 | x | -2
Sa growth inh | 109 | 85 | 105 | 99

# Continued:
no.	Structure	Sa growth inh second temp	GIV Gai3 FP	HCMV NEC inh	Sa growth inh
101	COc1ccc(C)cc1NC(=O)c1ccc2c(c1)N(Cc1cccc(Cl)c1)C(=O)c1ccccc1S2=O (configuration not stated)	87	102	x	76
102	COc1ccc(NC(=O)c2ccc(COc3ccc(C(C)C)cc3)o2)cc1	90	109	x	74
103	Cc1c(NC(=O)c2cc(-c3cccnc3)n[nH]2)c(=O)n(-c2ccccc2)n1C	x	104	14	x
104	NC(N)=NC(N)=Nc1ccccc1Br	82	104	x	72
105	COC(=O)C1=C(C)OC(N)=C(C#N)C1c1ccc(C#N)cc1 (configuration not stated)	x	102	-25	x
106	Cc1sc2ncn(CC(=O)c3ccccc3)c(=O)c2c1C	98	114	10	105
